GIV-Gai inh = blocks GIV peptide binding to rat Galpha-i3 | Galpha-i3/FITC-GIV peptide fluorescence polarization, 90 min; hits give low values; scaled: aluminum fluoride 0%, vehicle 100% | percent of control (FP), % (no concentration beside the values) | 210,000 compounds, 0.42% hits | AID 1224905;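 active = replicate mean at 85% of control or lower, very high polarization wells dropped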;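 note: wells of about 15 µL received 100 nL stock; the first replicate is given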
Target sequence (P08753 whole entry, looked up): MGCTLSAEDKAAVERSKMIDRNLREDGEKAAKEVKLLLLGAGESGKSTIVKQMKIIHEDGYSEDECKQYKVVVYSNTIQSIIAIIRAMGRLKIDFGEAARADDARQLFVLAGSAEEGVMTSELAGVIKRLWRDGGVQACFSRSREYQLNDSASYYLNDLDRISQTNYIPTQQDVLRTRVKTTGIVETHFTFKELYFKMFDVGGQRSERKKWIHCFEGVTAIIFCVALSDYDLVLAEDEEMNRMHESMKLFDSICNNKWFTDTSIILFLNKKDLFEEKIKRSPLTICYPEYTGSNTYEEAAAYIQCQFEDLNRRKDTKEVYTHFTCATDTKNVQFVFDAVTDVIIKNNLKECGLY
HCMV UL50-53 inh = disrupts HCMV UL50-UL53 complex binding | HTRF UL50-UL53 interaction, normalized percent inhibition | inhibition, % (test concentration not listed) | 190,000 compounds, 0.15% hits | AID 1918969;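 active = both replicates at 50% or more, plus weaker picks with an unusually low signal ratio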;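 note: stock transfer was 100 nL into about 20 µL; 0% = negative control wells and 100% = wells with untagged competitor protein; inactives centre near -12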
Sa growth 42C = inhibitors of Staphylococcus aureus growth at 42 °C. S. aureus RN4220 growth, OD600, 20 h; hits give low values. relative growth, % (concentration not given with the values). 170,000 compounds, 0.53% hits;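 active = growth at 42 °C up to 50% and 20 or more points under that at 30 °C, or under 10% at both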;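 note: 300 nL library stock went into each well; scaled to the means of positive and negative controls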
Sa growth 42C second temp = recorded beside Sa growth 42C, whose call it bears; relative growth, %; measured here: growth at 30 °C;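 optical density after 20 h as mean of two plates; 100% = untreated growth and lower means inhibition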
* = called active by the depositor; / = not tested or not shown; & = joins results of further samples.

Sample of the layout (4 entries):
SMILES	GIV-Gai inh	HCMV UL50-53 inh	Sa growth 42C	Sa growth 42C second temp
Cc1c(S(=O)(=O)c2ccc(Cl)cc2)csc1C(=O)N1CC(C)OC(C)C1 (stereo not drawn)	105	3	117	91
CCOc1ccc(/C=C/c2nc(C#N)c(NC3CCCCC3)o2)cc1	101	-36	92	87
c1ccc(SCc2cn3ccsc3n2)cc1	/	-17	110	88
O=C(Cn1ncc(Cl)c(Cl)c1=O)N(C1=CCCCC1)C1CC1	/	-52	60	97

This part in full, previewed entries included:
SMILES	GIV-Gai inh	HCMV UL50-53 inh	Sa growth 42C	Sa growth 42C second temp
Cc1c(S(=O)(=O)c2ccc(Cl)cc2)csc1C(=O)N1CC(C)OC(C)C1 (stereo not drawn)	105	3	117	91
CCOc1ccc(/C=C/c2nc(C#N)c(NC3CCCCC3)o2)cc1	101	-36	92	87
c1ccc(SCc2cn3ccsc3n2)cc1	/	-17	110	88
O=C(Cn1ncc(Cl)c(Cl)c1=O)N(C1=CCCCC1)C1CC1	/	-52	60	97
O=C(c1cc(-c2ccccn2)n[nH]1)N1CCCC(C(=O)N2CCc3ccccc3C2)C1 (stereo not drawn)	100	-14	/	/
CN(C)c1ccc(NC(=O)CC(NCc2cccnc2)C(=O)O)cc1 (stereo not drawn)	105	-4	98	87
C=CCOc1cccc(-c2nc(-c3ccccn3)no2)c1	107	-19	128	93
COc1ccc2cc(CCC(C)=O)ccc2c1	95	-43&-42&-13&-29&-71	90&85	88&90
CCOC(=O)N1CCC(N2Cc3cccc(C(=O)Nc4ccc(OC)c(OC)c4)c3C2=O)CC1	97	-2	95	89
CCOc1ccc(NC(=O)Nc2cc3c(cc2N2CCCCC2)n(C)c(=O)n3C)cc1	109	2	88	87
CCc1ccc(CNC(=O)c2ccc(CS(=O)(=O)Cc3cccc(C)c3)o2)cc1	105	/	113	91
Cc1csc2nc(CN(C)Cc3ccccc3)cc(=O)n12	102	-15	105	89
COc1cc(OC)cc(C(=O)OC(C)C(=O)NC2CCCCC2)c1 (stereo not drawn)	/	-28	66	89
CCCOc1ccc(C(=O)NCC(C)(C)N2CCOCC2)cc1	/	-24	92	91
O=C(CC1NCCNC1=O)NCCc1ccccc1 (stereo not drawn)	101	-6	106	102
CN1C(=O)CSC1=NC12CC3CC(CC(C3)C1)C2	104	-2	92	109
O=C(CO/N=C/c1cccc(Oc2ccccc2)c1)N1CCN(C(=O)c2ccco2)CC1	/	1	89	82
O=C(/C=C/c1ccco1)OCc1ccc(Br)cc1	/	-24	96	99
O=C1NC(=Nc2ccccc2Cl)S/C1=C/c1cc2c(cc1Br)OCO2	109	-13	/	/
COc1ccc(C(=O)c2oc3ccccc3c2NC(=O)COc2ccc(C)cc2)cc1	101	/	94	90
Cc1c(C(=O)O)sc2nc(-c3ccc(Cl)cc3)nn12	105	3	92	99
CCCN1C(=O)C2ON(c3ccccc3)C(c3ccncc3)C2C1=O (stereo not drawn)	106	-23	95	84
O=C1C=C(Nc2ccccc2)C(=O)N1Cc1ccccc1	105	-26	109	89
CSc1nc2sc3c(c2c(=O)[nH]1)CCc1ccccc1-3	105	-2	93	93
O=C(CN1CCC(N2CCCCC2)CC1)c1ccc2c(c1)OCCO2	107	-2	95	75

More entries.
SMILES	GIV-Gai inh	HCMV UL50-53 inh	Sa growth 42C	Sa growth 42C second temp
CCCN1Cc2cccc(C(N)=O)c2C1=O	103	/	114	95
O=S1(=O)CC(Sc2ccc(Cl)cc2)c2ccccc21 (stereo not drawn)	107	-19	110	88
N[C@@H]1CONC1=O	97	-13&-15&-40&-23	95&86	88&84
O=C(/C=C/c1ccccc1)Nc1ccc(-c2nnc(-c3ccco3)o2)cc1	103	-5	138	68
C=CCn1c(-c2ccc(OC)cc2)csc1=Nc1ccc(Br)cc1	106	/	78	75
CSc1nnc2c(n1)OC(C)Nc1ccc(Br)cc1-2 (stereo not drawn)	102	-5	108	98
CCCCOc1ccc(CNC(=O)c2cccc(NC(=O)N3CCSc4ncccc43)c2)cc1	105	/	93	89
CC(C)(C)C(=O)NCCc1c[nH]c2ccccc12	/	7	84	95
O=C(NCC(=O)N1CCN(c2ccccc2)CC1)c1cccs1	110	9	91	100
COc1ccc(OC)c(-n2c(=S)[nH]c3cc(C(=O)Nc4ccc(C)c(Cl)c4)ccc3c2=O)c1	101	/	101	87
Cc1nc(N)[nH]c(=O)c1CCC(=O)OCC(C)C	101	-17	113	87
COc1ccc(C(=O)NC(CC(C)C)C(=O)O)cc1 (stereo not drawn)	/	-1	110	85
O=C(NCC1CCN(S(=O)(=O)c2ccccc2)CC1)Nc1ccccc1	108	-10	99	93
CC(C)C(=O)N1C2=C(C(=O)c3ccccc32)C(c2ccc(Cl)cc2)c2c1n(C)c(=O)n(C)c2=O (stereo not drawn)	100	/	93	83
CN1CCN(CCNC(=O)Cn2cccc2C(=O)c2ccccc2)CC1	106	/	127	94
O=C(COCc1cc(-c2ccc3c(c2)OCO3)on1)N1CCN(c2cccc(C(F)(F)F)c2)CC1	102	/	108	86
Cc1ccc(N2C(=O)NC(=O)/C(=C/c3cc(Br)c(O)cc3O)C2=O)cc1	-71*	-44	/	/
CN(C(=O)c1cc2c(s1)-c1ccccc1OC2)C1CCCCC1	106	4	89	80
C=CCOc1nc(N2CCCCC2)nc(N2CCCCC2)n1	99	-15	78	80
COC(=O)c1cc2ccsc2n1CC(=O)NCC1CCCO1 (stereo not drawn)	106	3	102	80
Cc1ccc(S(=O)(=O)N2CCN(C(=O)CSc3nccn3C)CC2)cc1	/	7	102	95
O=C(COC(=O)C1(c2ccc(F)cc2)CCCC1)N1CCOCC1	/	-30	114	85
Cc1ccc(C)n1-c1ccccc1CN(C)C1CCCCC1	/	-15	90	87
COc1ccc([S+]2CCCCC2)cc1	/	-143	98	77
COC(=O)CN1c2ccccc2S(=O)(=O)c2ccccc21	106&98	-30&-4	90	79

More records follow:
SMILES	GIV-Gai inh	HCMV UL50-53 inh	Sa growth 42C	Sa growth 42C second temp
Cc1cc(C)cc(N=Cc2ccc(C#N)cc2)c1	/	-10	82	84
O=C(O)C(=O)/C=C(\O)c1ccc(Cl)cc1	108	-4	94	111
COc1ccc(C2Nc3ccccc3C(=O)N2c2ccccc2)cc1COc1cc(C)c(Cl)cc1C(C)C (stereo not drawn)	102	-13	/	/
CCOC(=O)CNC(=O)c1sc2ncnc(N3CCN(c4ccc(OC)cc4)CC3)c2c1C	105	-20	/	/
NC(=O)CSc1ncc(CO)n1Cc1ccccc1	104	-8	100	91
c1ccc2c(c1)CCN(Cc1nc3ccccc3[nH]1)C2	/	-31	87	68
CC(=O)Nc1ccc(CN2CCN(C)CC2)cc1	/	7	105	92
COc1ccccc1N1C(=O)C2CC=CC(C)C2C1=O (stereo not drawn)	100	-33	94	80
O=C(C1CCCCN1S(=O)(=O)c1ccc(F)cc1)N1CCc2ccccc21 (stereo not drawn)	106	-22	/	/
CC(C)NC(=O)/C(C#N)=C/c1nn(Cc2ccccc2)cc1-c1cccnc1	/	-36	104	87
Cc1ccc(C)c(C(=O)C(C)OC(=O)c2cccn2C)c1 (stereo not drawn)	/	-28	95	64
CCCn1c(C(O)c2ccc3c(c2)OCO3)nc2ccccc21 (stereo not drawn)	/	-18	110	88
O=C(/C=C/c1ccc(Cl)cc1)N1CCC(c2nc3ccccc3o2)CC1	107	0	97	85
Cc1ccc2c(c1)N(CCC(=O)NCc1ccccc1)C(=O)CO2	104	-13	103	90
CCC(=O)Nc1ccc(C(=O)Nc2ccc(S(=O)(=O)N3CCCCC3)cc2)cc1	103	-1	111	104
O=C(Nc1ccc(C(=O)OCc2cc(=O)n3ccsc3n2)cc1)c1cccc(F)c1	99	/	100	89
COc1ccc(NC(=O)c2c(C)oc3ccc(O)c(CN4CCCCCC4)c23)cc1	102	5	100	96
CC(=O)Nc1ccccc1I	103	-2	88	88
CC1CC(C)CN(c2nc(Nc3ccccc3)c3cnn(C)c3n2)C1 (stereo not drawn)	100	-8	93	91
CCOC(=O)c1ccccc1NS(=O)(=O)c1ccc2c(c1)OCCO2	101	/	92	101
CCc1ccc(CN(Cc2cn[nH]c2-c2ccc(OC)cc2)C(=O)Nc2ccc3c(c2)OCCO3)cc1	101	/	88	89
Nc1nonc1C(=O)NCCNC(=O)Nc1cccc(F)c1	104	-24	/	/
COc1ccc(-n2c(=O)c3ccccc3n(CC(=O)Nc3ccccc3OC)c2=O)cc1	105	-6	104	94
Cc1ccc(O)c(-c2n[nH]c3c2C(c2ccccc2F)N(Cc2ccco2)C3=O)c1 (stereo not drawn)	101	-38	89	71
CCS(=O)(=O)N1CCc2cc(C(=O)Nc3cccc(NC(C)=O)c3)ccc21	99	-8	104	86

A draw from above in order of number of heavy atoms, ascending.
SMILES	GIV-Gai inh	HCMV UL50-53 inh	Sa growth 42C	Sa growth 42C second temp
Cc1cc(C)cc(N=Cc2ccc(C#N)cc2)c1	/	-10	82	84
Cc1ccc2c(c1)N(CCC(=O)NCc1ccccc1)C(=O)CO2	104	-13	103	90
CC1CC(C)CN(c2nc(Nc3ccccc3)c3cnn(C)c3n2)C1 (stereo not drawn)	100	-8	93	91
CC(C)NC(=O)/C(C#N)=C/c1nn(Cc2ccccc2)cc1-c1cccnc1	/	-36	104	87
O=C(Nc1ccc(C(=O)OCc2cc(=O)n3ccsc3n2)cc1)c1cccc(F)c1	99	/	100	89
COc1ccc(-n2c(=O)c3ccccc3n(CC(=O)Nc3ccccc3OC)c2=O)cc1	105	-6	104	94

Next compounds:
SMILES	GIV-Gai inh	HCMV UL50-53 inh	Sa growth 42C	Sa growth 42C second temp
Cc1ccc(C)c(NC(=O)Cn2cc(S(=O)(=O)NC(C)C)c(S(=O)(=O)NC(C)C)c2)c1	105	/	122	82
Cc1ccsc1CNCC1CCCO1 (stereo not drawn)	/	16	116	106
CCCCN(C)C(=O)c1cn(CC(C)C)c(=O)c2cc(OC)c(OC)cc12	102	-4	74	89
COc1ccc(NC(c2nnc(-c3ccccc3)o2)c2ccccc2F)cc1Cl (stereo not drawn)	106	-5	116	77
COc1ccc(C(CNC(=O)Cc2ccc(Cl)cc2)N2CCOCC2)cc1 (stereo not drawn)	97	-23	92	79
CN(CC(=O)N1CCc2ccccc21)S(=O)(=O)c1cccc2cccnc12	105	/	106	92
COc1ccccc1NC(=O)CSc1ncc2c(n1)-c1ccccc1N(Cc1ccccc1C)S2(=O)=O	110	/	90	80
CC(CCc1ccccc1)NC(=O)CCc1nc(-c2ccccc2F)no1 (stereo not drawn)	101	2	90	81
CCOC(=O)c1sc(S(N)(=O)=O)c(C(=O)OCC)c1C	/	-15	98	93
COCCNC(=S)Nc1ccn(C)n1	105	-10	97	106
COc1ccccc1C1CCN(Cc2cccc3ccccc23)CC1	105	-17	107	92
CCSCCOC(=O)C1=C(C)NC2=C(C(=O)CC(c3ccccc3)C2)C1c1ccc(OC)cc1OC (stereo not drawn)	105	-5	/	/
O=C(Cn1cccc1)N1CCN(c2ccccc2)CC1	101	2	100	88
O=C(COC(=O)CCc1c[nH]c(=O)[nH]1)Nc1ccccc1	101	-17	89	82
CCc1ccc2nc(N3CCCCC3)c(C#N)cc2c1	107	-8	113	108
COc1ccc(N/C=C2/CCCCC2=O)cc1	104	-66	103	87
CC(C)Cn1c(=O)oc2ccccc21	101	-10	100	77
CN(C1CCCC1)C1CCN(C(=O)CNC(=O)/C=C/c2ccccc2F)CC1	103	-29	98	97
CCOc1ccccc1N(C)C(=O)c1cc2c(s1)-c1ccccc1OC2	106	-22	100	81
CC1CCN(c2ccc(-c3cccc(NS(=O)(=O)c4ccc(F)cc4F)c3)nn2)CC1	108&99	-27	129	110
O=C(O)c1c2c(nc3ccc(Br)cc13)CCCC2	100	/	127	84
COCc1nc2ccccc2n1Cc1cccc(C)c1	108	2	116	94
CN(Cc1ccccc1)C(=O)c1ccc2c(c1)NC(=O)C(N1CCOCC1)S2 (stereo not drawn)	108	-24	99	93
Cc1ccc(C=Nc2cccc(Cl)c2)cc1	101	/	112	98
CCn1c(=O)c(=O)[nH]c2cc(-c3noc(-c4ccc(C(C)(C)C)cc4)n3)ccc21	100	16	/	/

Continued:
SMILES	GIV-Gai inh	HCMV UL50-53 inh	Sa growth 42C	Sa growth 42C second temp
COc1ccc(CNn2cnnc2)c(O)c1	106	4	108	95
Cc1ccc(SCCC(=O)c2cccs2)cc1	102	6	100	91
CCOc1ccccc1CNC(=O)CCn1ccc2cc(S(=O)(=O)N3CCCCC3)ccc21	103	/	101	95
O=C(OCc1ccccc1)C1=NNC2C(=O)N(Cc3ccccc3)C(=O)C12 (stereo not drawn)	108	-18	88	94
CCOC(=O)c1cc(OC(=O)c2ccc(C)cc2)n(-c2ccccc2)n1	103	8	98	99
CCNc1cc(Nc2ccc(-c3ccccc3)cc2)c([N+](=O)[O-])c2nonc12	109	-14	/	/
O=C(O)CCCn1ccc2cc(S(=O)(=O)N3CCCC3)ccc21	110	1	108	93
CCCCn1c(SCC(=O)NC)nc2ccccc2c1=O	/	-12	85	92
O=C(NCCn1c(C(F)(F)F)nc2cccnc21)Nc1cccc(Br)c1	113	-1	/	/
FC(F)(F)c1cccc(N2CCN(Cc3ccoc3)CC2)c1	101	0	112	110

Source: PubChem BioAssay (ICCB-Longwood Screening Facility, Harvard Medical School)
